Assay outcomes as filed in PubChem BioAssay.
CBX7 AlphaScr – CBX7 chromodomain binding inhibitors, primary screen, biochemical, AlphaScreen; Chromobox protein homolog 7 (Homo sapiens), O95931; AlphaScreen His6-CBX7 / biotin-H3K27me3 peptide binding; active compounds read low; normalised signal (fraction of DMSO) (concentration not given with the values); 66,000 compounds, 1.1% hits; in the data active = normalised signal below about 0.5;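 also: 100 nL library stock added to about 20 µL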
Target sequence (O95931 whole entry, looked up): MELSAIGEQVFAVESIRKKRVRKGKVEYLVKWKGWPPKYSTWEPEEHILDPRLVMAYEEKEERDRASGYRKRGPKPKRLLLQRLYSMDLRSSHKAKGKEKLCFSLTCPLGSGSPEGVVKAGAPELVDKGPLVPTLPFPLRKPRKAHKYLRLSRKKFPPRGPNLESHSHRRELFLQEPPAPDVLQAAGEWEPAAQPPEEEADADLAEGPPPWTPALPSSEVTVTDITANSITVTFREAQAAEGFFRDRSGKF
CBX7 AlphaScr z-score – second read-out of CBX7 AlphaScr, no call of its own (marks repeat the call); z-score; measured here: z-score of CBX7 signal; some inactives read as strong as hits; reference of the scale not given here;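 same signal on another scale; lower means less binding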
* = called active by the depositor. An excerpt; count on the stated rates, not on these rows.

The line under a structure holds: CBX7 AlphaScr | CBX7 AlphaScr z-score
- CS(=O)(=O)N1CCCC(C(=O)NCc2ccc(F)cc2)C1 (stereo not drawn)
→ 1.02 | 0.528
- O=C(CCn1nc(-c2ccc(Cl)cc2)c2ccccc2c1=O)Nc1cccnc1
→ 0.908 | -2.17
- CCn1c(C(O)(c2ccccc2)c2ccccc2)cnc1C
→ 1.25 | 1.8
- O=C(Nc1cnn(Cc2ccc(F)cc2)c1)c1cc(-c2ccc(Cl)c(Cl)c2)on1
→ 1.05 | 1.33
- O=C(NCc1ccccc1Cl)c1cc(-c2ccccc2)nc2ccccc12
→ 0.979 | -0.0431
- O=C(NC1CCCC1)C1c2cccn2CC(=O)N1CCN1CCOCC1 (stereo not drawn)
→ 1.05 | 1.01
- COc1ccc(-c2nc(C#N)c(NCc3ccc4c(c3)OCO4)o2)cc1
→ 0.933 | -0.971
- Cc1nc2ccc(S(=O)(=O)NC(C(=O)Nc3nccs3)C(C)C)cc2s1 (stereo not drawn)
→ 0.989 | -0.17
- COc1ccc(-c2c(C)nn3c(N4CC(C)CC(C)C4)cc(C)nc23)cc1OC (stereo not drawn)
→ 1.05 | 0.133
- Cc1ccc(CCNC(=O)C2CCCN(c3nc4ccccc4[nH]3)C2)cc1 (stereo not drawn)
→ 0.782 | -2.51
- COc1ccc(-c2nn(C)c3sc(C(=O)N4CC(C)CC(C)C4)cc23)cc1OC (stereo not drawn)
→ 1 | -0.00923
- CCOC(=O)c1cc(-c2ccccc2)n(CCC(=O)Nc2nc3c(C)cccc3s2)c1C
→ 0.848 | -4.49
- O=C(CCn1nc(-c2ccccc2)ccc1=O)N1CCOCC1
→ 1.14 | 4.25
- CC(NC(=O)c1cccnc1)C(c1cccs1)N1CCN(c2ccc(F)cc2)CC1 (stereo not drawn)
→ 0.981 | -0.609
- CCN(CC)c1cc(C)c2cc(NC(=O)C3CC3)ccc2n1
→ 1.17 | 1.9
- CCC(Cc1ccccc1)NC(=O)C1CCN(C(=O)c2cc3sccc3n2CC)CC1 (stereo not drawn)
→ 0.745 | -1.12
- Cc1ccc(-n2c(-c3ccc(F)cc3)c(C(=O)O)c3ccccc3c2=O)cc1
→ 1.04 | 0.548
- COc1ccc(N(C)S(=O)(=O)c2ccc3c(c2)CCN3C(C)=O)cc1
→ 1.47 | 3.43
- COc1ccc(OC)c(-c2cc(C(=O)NCCCn3ccnc3)no2)c1
→ 0.956 | -1.23
- O=C(COc1ccc(Cl)cc1)NCc1nnc(SCC(=O)NCc2ccc3c(c2)OCO3)o1
→ 1.08 | 1.28
- CCCCN(CCCNC(=O)c1cc(-c2ccncc2)nc2ccccc12)c1ccccc1
→ 0.767 | -2.62
- Cc1ccnc(N2C(=O)C3C4c5ccccc5C(c5ccccc54)C3C2=O)c1 (stereo not drawn)
→ 1.02 | 0.253
- COc1ccc(-c2cc(C(=O)Nc3ccc(C)cc3)c3ccccc3n2)cc1
→ 0.846 | -0.608
- O=C(NCc1ccccc1Cl)c1c(-n2cccc2)sc2c1CCC2
→ 0.729 | -5.08
- Cn1cc(Cl)c(C(=O)N2CCc3ccccc32)n1
→ 0.936 | -1.57
- CC1(C)Nc2ccccc2N(Cc2ccccc2)C1=O
→ 0.999 | -0.0337
- O=C(Nc1cccc(-c2nc3cc(Cl)ccc3o2)c1)c1ccc(F)cc1
→ 1.14 | 1.55
- CCOCCOC(=O)c1[nH]c2c(c1C)C(=O)CC(c1ccccc1)C2 (stereo not drawn)
→ 1.01 | 0.274
- COc1ccc(N2Cc3cccc(C(=O)NCc4ccc(Cl)cc4)c3C2=O)cc1
→ 0.955 | -1.09
- O=C(NCc1ccccc1Cl)c1cc2c(s1)CSC2
→ 1.13 | 1.39
- COc1ccc(-c2nc(SCC(=O)Nc3ccc(F)cc3)c(-c3ccc(F)cc3)[nH]2)cc1OC
→ 1.02 | 0.0837
- COc1ccc(NC(=O)c2cnn(-c3ccc(F)cc3)c2C2CCNCC2)cc1Cl
→ 0.956 | -0.85
- CCOc1ccc(C(O)c2nccn2C)cc1 (stereo not drawn)
→ 1.12 | 2.26
- COc1ccc(-n2cnc3cc(C(=O)NC4CCCCC4C)ccc32)cc1 (stereo not drawn)
→ 0.973 | -0.259
- OCCCNc1ncnc2c1c(-c1ccccc1)cn2-c1ccc(F)cc1
→ 0.969 | -0.781
- COc1ccc(-c2nc3sc4c(c3c(=O)[nH]2)CCCC4)cc1
→ 1.04 | 0.952
- Cc1cccn2c(Nc3ccc4c(c3)OCCO4)c(-c3ccc(N4CCOCC4)cc3)nc12
→ 0.526 | -17.8
- Cc1cccc(CCNC(=O)CCc2nc(-c3ccccc3F)no2)c1
→ 1.13 | 2.01
- O=C(c1ccc(Cn2c(=O)[nH]c3ccccc3c2=O)cc1)N1CCN(Cc2ccc3c(c2)OCO3)CC1
→ 0.737 | -0.737
- O=C(Cn1ncc2c1-c1ccccc1OC2)N1CCC(N2CCCCC2)CC1
→ 1.05 | 1.49
- CC1(C)CNC(=O)c2sc(N3CCOCC3)nc2C1
→ 1.01 | 0.024
- CCCN1C(=O)CN(C2CCCCCC2)C(=O)C1c1ccc(C)cc1 (stereo not drawn)
→ 1.04 | 0.424
- COc1ccccc1NC(=O)C(=O)c1c(-c2ccccc2)cc2ccccn12
→ 0.775 | -4.42
- Cc1ccc2c(c1)c(Sc1ccccc1)c(CC(=O)Nc1ccccc1)n2C
→ 1.03 | 0.394
- CCOC(=O)c1cnc2ccc(OCC)cc2c1Nc1ccccc1
→ 0.963 | -0.472

Continued:
Structure	CBX7 AlphaScr	CBX7 AlphaScr z-score
COc1ccc(-c2nc(-c3ccncc3)no2)cc1OC	0.751	-0.984
COc1ccc(Cl)cc1NC(=O)Cn1cnc2ccccc2c1=O	1.03	0.852
O=C(CCN1N=C(c2ccccc2)CCC1=O)Nc1cccc(C(F)(F)F)c1	0.939	-1.44
CCOC(=O)c1cnc2cc(Cl)c(OC)cc2c1NCCc1ccc(OC)c(OC)c1	1.08	1.15
Cc1ccc(N2C(=O)C(N3C(=O)c4ccccc4C3=O)C2c2cccc(Cl)c2Cl)cc1 (stereo not drawn)	0.903	-2.86
Cc1nc2nc(SCC(=O)NC3CCCc4ccccc43)nn2c(C)c1Cc1ccccc1 (stereo not drawn)	1.15	1.48
Cc1cc(N2CCCCC2)nc2ccc(NC(=O)CCC(=O)NC3CCCCCC3)cc12	0.708	-12.7
NC(=O)c1ccccc1NC(=O)c1cc2c(n(-c3ccccc3)c1=O)CCCC2=O	1.02	1.16
CC1CC(C)CN(C(=O)CSc2nnc(-c3ccc(Cl)cc3)o2)C1 (stereo not drawn)	1.2	3.05
CCOc1nc(-c2ccccc2)c2cc(C)ccc2n1	1.1	1.74
COCCCNC(=O)Nc1ccc2c(c1)N(C)C(=O)CS2	1.03	1.42
COc1ccc(OC)c(Nc2nc(C)c(C(C)=O)s2)c1	0.982	-0.22
COc1ccc(NC(=O)c2oc3ccc(S(=O)(=O)N4CCCC4)cc3c2C)cc1Cl	1.05	0.949
COc1ccc(NC(=O)CSc2nc(-c3ccccc3)[nH]c2-c2ccccc2)cc1OC	0.839	-7.65
COc1ccc2c(c1)Cc1sc(NC(=O)c3cccc(Cl)c3)nc1-2	1.1	1.39
COc1ccc(-c2noc(-c3ccc(C(C)(C)C)cc3)n2)cc1	1.51	0.606
COc1cccc(CNC(=O)C2(S(=O)(=O)c3ccc(C)cc3)CC2)c1	0.896	-4.92
COc1ccccc1Nc1cc(C(=O)N2CCc3ccccc3C2)c2ccccc2n1	1.07	1.67
CCOC(=O)Cc1csc(NC(=O)CCCOc2ccc(CC)cc2)n1	1.19	1.86
CC1CN(c2oc(COc3ccccc3)nc2C#N)CC(C)O1 (stereo not drawn)	0.952	-0.302
COc1ccccc1CNC(=O)c1cc(Sc2cccc(SC)c2)nc2ccccc12	1.1	5.24
O=C(CCn1nc(-c2ccc(Cl)cc2)ccc1=O)N1CCN(Cc2ccccc2)CC1	0.884	-2.17
CC(C)CC(=O)N1CC(=O)Nc2ccc(F)cc2C1c1ccccc1 (stereo not drawn)	0.961	-1
CCN(CC)S(=O)(=O)c1ccc2c(c1)N(CC(=O)N1CCN(c3ccccn3)CC1)C(=O)CO2	1.03	0.761
CCC1CCCCN1CCCNC(=O)C1CCN(c2nnc(-n3cccc3)s2)CC1 (stereo not drawn)	1.87	9.24
CCC(C)Nc1nc(C)nc2sc(C)c(C)c12 (stereo not drawn)	1.23	2.21
COc1ccc(-c2cc(C(=O)Nc3c(C)nn(Cc4ccc(C)cc4)c3C)no2)cc1OC	0.853	-2.02
Cc1cccc(-c2noc(CN(C(=O)c3ccc(F)cc3)C(C)C)n2)c1	0.955	-1.02
COc1ccc(Cl)cc1C(=O)Nc1ccc2nc(N3CCN(C)CC3)cc(C)c2c1	1.05	1.79
Cc1ccc(Cn2c(=O)c(CCC(=O)NCc3ccc(F)cc3)nc3ccccc32)cc1	1	0.0438
O=C1CN(C(=O)c2ccc(Cl)cc2)C(c2ccccc2)c2cc(F)ccc2N1 (stereo not drawn)	0.996	-0.11
Cc1cccc2c1-c1sc(C(=O)Nc3ccc(F)cc3Cl)cc1CO2	1.1	3.31

In another format: results already given
O=C(NC1CCCC1)C1c2cccn2CC(=O)N1CCN1CCOCC1 (stereo not drawn)
- CBX7 AlphaScr: 1.05
- CBX7 AlphaScr z-score: 1.01
COc1ccc(-c2nc(C#N)c(NCc3ccc4c(c3)OCO4)o2)cc1
- CBX7 AlphaScr: 0.933
- CBX7 AlphaScr z-score: -0.971
Cc1nc2ccc(S(=O)(=O)NC(C(=O)Nc3nccs3)C(C)C)cc2s1 (stereo not drawn)
- CBX7 AlphaScr: 0.989
- CBX7 AlphaScr z-score: -0.17

Remaining list, next part
Structure	CBX7 AlphaScr	CBX7 AlphaScr z-score
Cc1cc(C)c2c(=O)[nH]c(SCC(=O)c3ccccc3)nc2n1	0.973	-0.823
COc1ccc(Cn2c(CCC(=O)Nc3ccc(OC)c(Cl)c3)nc3cccnc32)cc1	0.955	-0.87
CCC(=O)N1CCc2cc(S(=O)(=O)NCCC(=O)NC3CCCCCC3)ccc21	0.988	-0.345
Cn1c(NC(=O)C2CCCN(C(=O)c3cnn(-c4ccccc4)c3-n3cccc3)C2)nc2ccccc21 (stereo not drawn)	0.909	-4.56
CCOC(=O)CNc1c(-c2ccc(Cl)cc2)nc2c(C#N)c[nH]n12	0.762	-0.267
Cc1ccc(C(C)C)c(OCc2nn3cc(-c4ccc(F)cc4)c4c3n2CCCC4)c1	0.879	-2.57
COc1ccccc1OCC(=O)Nc1nc(-c2ccc(Cl)cc2)cs1	1.02	0.235
O=C(O)CCc1ccc(-c2cccs2)n1-c1ccc(F)cc1	0.981	-0.325
COc1cccc(C(=O)Nc2nnc(Cc3ccccc3)s2)c1	1.43	3.81
Cc1cc(N2CCC(C)CC2)nc2ccc(NC(=O)c3cccs3)cc12	0.713	-4.82
CCSc1nnc(-c2ccc(C)c(S(=O)(=O)NCc3cccnc3)c2)c2ccccc12	0.825	-3.92
COc1ccc(-n2nnnc2C2(Nc3ccc(C)cc3)CCCCC2C)cc1 (stereo not drawn)	0.983	-0.674
O=C(CSc1nccn1-c1ccc(F)cc1)Nc1cccc(F)c1	0.804	-0.693
CCCCCC(=O)Nc1ccc(Cl)c(-c2nc3cc(C)ccc3o2)c1	1.11	2.96
COc1ccc(CN2CCN(Cc3ccccc3Cl)CC2)cc1OC	0.889	-1.9
O=S(=O)(c1ccccc1)N1CCN(c2ccc3nnc(-c4ccccc4)n3n2)CC1	0.1*	-12.6*

Exported as labelled records: part of the list above.
SMILES: COc1ccc(-n2nnnc2C2(Nc3ccc(C)cc3)CCCCC2C)cc1 (stereo not drawn)
  CBX7 AlphaScr = 0.983
  CBX7 AlphaScr z-score = -0.674
SMILES: O=C(CSc1nccn1-c1ccc(F)cc1)Nc1cccc(F)c1
  CBX7 AlphaScr = 0.804
  CBX7 AlphaScr z-score = -0.693
SMILES: CCCCCC(=O)Nc1ccc(Cl)c(-c2nc3cc(C)ccc3o2)c1
  CBX7 AlphaScr = 1.11
  CBX7 AlphaScr z-score = 2.96
SMILES: COc1ccc(CN2CCN(Cc3ccccc3Cl)CC2)cc1OC
  CBX7 AlphaScr = 0.889
  CBX7 AlphaScr z-score = -1.9

The listing continues:
Structure	CBX7 AlphaScr	CBX7 AlphaScr z-score
N#Cc1cc(Oc2ccc(F)cc2)nc2ccccc12	1.09	2.77
COc1ccc(Cl)cc1NC(=O)Cn1c(=O)n(Cc2ccc(C)cc2)c(=O)c2cccnc21	1.21	3.75
COC(=O)c1ccc(NC(=O)c2cnc3scc(C)n3c2=O)cc1	1.04	1.56
CSCC[C@@H](C(=O)NC(C)c1cccs1)N1Cc2ccccc2C1=O (stereo partly drawn)	0.919	-0.228
COc1ccc2c(C)nc(Nc3nc(C)cc(=O)[nH]3)nc2c1	1.01	0.0757
O=C(c1cnn2c1NC(c1ccc3c(c1)OCO3)CC2C(F)(F)F)N1CCN(Cc2ccccc2)CC1 (stereo not drawn)	0.98	-0.284
CCOC(=O)Nc1ccc2c(c1)N(C(=O)CCN(C)C)c1ccccc1CC2	0.892	-1.28
O=C(CC1(O)C(=O)N(Cc2ccc3c(c2)OCO3)c2ccccc21)c1ccc(F)cc1 (stereo not drawn)	0.997	-0.093
O=C(Nc1ccccc1F)C1CC(=O)N(c2ccc(Cl)cc2)C1 (stereo not drawn)	1.06	0.619
OC(c1ccccc1)c1nnc(SCc2ccccc2Cl)n1-c1ccccc1 (stereo not drawn)	0.979	-0.248
O=[N+]([O-])c1ccc(C23CC4CC(CC(O)(C4)C2)C3)cc1	0.92	-1.29
CCOC(=O)c1cnc2c(C(F)(F)F)cccc2c1Nc1ccc(C(=O)O)cc1	1.05	2.28
COc1ccccc1NC(=O)NCCN1CCN(c2cc(Cl)ccc2C)CC1	1.23	1.84
COc1ccc(NC(=O)CSc2nnc(CNC(=O)COc3ccc(Cl)cc3)o2)c(OC)c1	1.17	1.83
COc1ccc(CNC(=O)Nc2cccs2)cc1	1.02	0.707
Cc1ccc(Cc2c(C)nc3c(C(=O)NCc4ccc5c(c4)OCO5)cnn3c2C)cc1	0.919	-1.07
O=C1CCc2cc(S(=O)(=O)N3CCC(C(=O)Nc4cccnc4)CC3)ccc2N1	0.997	-0.0556
